Compound activity: PubChem BioAssay, several laboratories
PKD1 kinase inh = inhibitors of human PKD1 kinase; 0.056% of 200,000 active; inhibition, %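 (about 10 µM by stock and volumes)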; PKD1 kinase fluorescence polarization assay; Q15139; AID 797;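 active = inhibition of 50% or more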;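 also: controls were vehicle for no effect and a reference inhibitor for full effect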
RGS16-Gao = RGS16-Galphao interaction regulator (human). bead-based flow cytometry RGS16-Galphao binding, fluorescence; actives lie on both sides. binding response (% of control), % at 10 µM. 0.38% of 220,000 active;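 active = below 25% or above 175%, edge rows of some plates excepted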;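 also: Galphao activated by GDP with aluminum fluoride before binding; 100% = wells without compound and 0% = beads without RGS; some results beyond the cut were filed as inactive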
Target sequence (O15492 whole entry, looked up): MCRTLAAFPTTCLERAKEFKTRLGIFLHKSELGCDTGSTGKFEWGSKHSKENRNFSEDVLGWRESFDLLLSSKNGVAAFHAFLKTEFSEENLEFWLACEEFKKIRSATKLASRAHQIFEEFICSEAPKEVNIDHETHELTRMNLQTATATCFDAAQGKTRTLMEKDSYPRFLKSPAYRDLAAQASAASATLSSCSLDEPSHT
Target sequence (P09471 whole entry, looked up): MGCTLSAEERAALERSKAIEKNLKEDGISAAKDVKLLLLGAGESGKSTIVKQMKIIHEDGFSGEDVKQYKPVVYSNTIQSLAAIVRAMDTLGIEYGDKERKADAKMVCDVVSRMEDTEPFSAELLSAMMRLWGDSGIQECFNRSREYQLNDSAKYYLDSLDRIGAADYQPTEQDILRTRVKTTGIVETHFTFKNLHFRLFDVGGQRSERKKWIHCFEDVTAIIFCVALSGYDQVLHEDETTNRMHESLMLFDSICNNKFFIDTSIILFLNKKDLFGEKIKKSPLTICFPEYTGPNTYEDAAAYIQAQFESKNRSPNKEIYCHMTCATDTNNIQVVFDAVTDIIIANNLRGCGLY
HSV replic up = increases HSV replication in cells. HSV replication augmentation in cells, fold increase. maximum fold increase. 0.005% of 220,000 active;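 active = peak rise of 1.5-fold or more in the series; inconclusive = self-fluorescent or not available for retest; tested in PC3 cells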;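 also: first round at 10 µM; read as green reporter fluorescence; hits show the peak of a series up to 25 µM; 1 = signal of infected wells without compound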
INS promoter inh = TRM-6 insulin promoter activity inhibition; TRM-6 cells (human fetal islet line), insulin promoter-eGFP reporter, imaging; reporter expression induced with tamoxifen; inhibition, % at 2 µM; 0.9% of 130,000 active;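 active = inhibition above the mean plus 3 SD, with well images judged a real hit on visual review, cut at about 60% in these data, passing the limit was not always enough; inconclusive = inhibition over the cutoff but images rejected on review; inactive = inhibition not above the cutoff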
GALR2 ag = activates the human galanin receptor 2 | O43603 | GALR2-expressing cells, agonist activation read-out | activation, %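 (tested at 5 µM)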 | 0.48% of 140,000 active;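 active = above mean plus 3 SD of all compounds, about 5% in these data, not always enough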;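 also: 0% = vehicle buffer wells and 100% = reference agonist at full effect; tested in CHO reporter cells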
Target sequence (O43603 whole entry, looked up): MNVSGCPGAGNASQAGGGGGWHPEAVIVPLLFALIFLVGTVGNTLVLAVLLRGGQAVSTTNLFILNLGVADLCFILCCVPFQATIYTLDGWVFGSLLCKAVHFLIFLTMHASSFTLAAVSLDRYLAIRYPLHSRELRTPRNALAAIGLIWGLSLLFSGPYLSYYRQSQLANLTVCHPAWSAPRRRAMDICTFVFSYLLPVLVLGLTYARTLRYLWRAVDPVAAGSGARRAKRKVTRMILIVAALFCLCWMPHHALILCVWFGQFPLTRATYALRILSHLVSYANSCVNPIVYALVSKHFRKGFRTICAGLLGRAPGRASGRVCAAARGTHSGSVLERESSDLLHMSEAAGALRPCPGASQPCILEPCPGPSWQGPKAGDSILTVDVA
INS promoter inh cell count = recorded beside INS promoter inh, whose call it bears; normalized cell count, %; measured here: cell count, toxicity; reference of the scale not given here;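 cells exposed to compound for 48 h; stained nuclei by imaging scaled within each plate; lower means fewer cells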
HSV replic up primary fold = recorded beside HSV replic up, whose call it bears; fold increase; compound at 10 µM; measured here: primary screen fold increase 10 uM; tested in PC3 cells;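 GFP signal in the first replicate; 1 = infected wells without compound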
Active calls of the source: *; i = inactive; u = inconclusive; x = no result given.

Every second line gives: PKD1 kinase inh	RGS16-Gao	HSV replic up	HSV replic up primary fold	INS promoter inh	INS promoter inh cell count	GALR2 ag
> CCc1nnc(NC(=O)CSc2nnc(-c3cccnc3)n2C)s1
  -3	96	i	0.92	x	x	x
> CCN(CC)c1ccc(C2C3CCCCC3(O)CCN2CC(=O)N2CCCCC2)cc1 (configuration not stated)
  8	104	i	0.94	17	104	-1.0
> CCOC(=O)C1=C(O)/C(=C/c2ccc(OCC(=O)O)c(OCC)c2)SC1=Nc1ccc(OC)cc1
  -3	107	i	1.2	-42	108	1.1
> CCOc1ccccc1OCCCC(=O)N1CCN(S(=O)(=O)c2ccc(C)cc2)CC1
  5	116	i	0.96	-25	99	-1.4
> CCc1cc(C)c(O)c(CC)n1
  -4	105	i	1	28	118	-3.1
> COC(=O)Cc1cc(=O)[nH]c(/N=C(\N)Nc2cccc(C)c2)n1
  1	107	i	0.92	-20	148	x
> COC(=O)c1[nH]c2cc(C)ccc2c1NC(=O)CN1CCN(c2ccccc2OC)CC1
  -13	104	i	0.82	24	101	-0.5
> O=C(CN1CCCCC1)N/N=C/c1ccccc1OCc1ccccc1
  2	109	i	0.81	0	103	-1.8
> Cc1cc(Br)ccc1OCC(=O)N1CCCCCC1
  -12	141	i	1	21	133	0.0
> CC1CN(C)C(C)C/C1=N\Oc1ccc([N+](=O)[O-])cc1 (configuration not stated)
  -1	96	i	1.1	14	96	x
> Cc1ccc(CNC(=S)NCc2ccncc2)cc1
  6	95	i	1.1	-21	87	x
> COc1ccc(OC)c(-c2cc(C(=O)N3CCCc4ccccc43)no2)c1
  3	100	i	0.99	-20	58	-2.4
> Cc1ccc(C(=O)NC(=S)Nc2ccc3[nH]c(=O)[nH]c3c2)cc1C
  1	130	i	0.98	23	99	-2.4
> O=C(COC(=O)C1CCN(S(=O)(=O)c2ccc3c(c2)OCCO3)CC1)Nc1ccccc1OC(F)F
  2	110	i	1.2	x	x	-0.1
> COc1cc(/C=N/O)ccc1OCc1ccccc1Cl
  2	98	i	0.98	35	126	x
> CCOc1ccccc1OCCCC(=O)OCC(=O)Nc1cccc(Cl)c1
  7	107	i	1	x	x	0.1
> Nc1nc(N)c(C=Nc2ccc(Br)cc2)c(Nc2ccc(Br)cc2)n1
  x	98	i	0.89	x	x	x
> CC(C)C(NC(=O)c1ccccc1NC(=O)c1ccco1)C(=O)NNC(=O)c1ccncc1 (configuration not stated)
  x	91	i	1.3	x	x	x
> CC(=Nc1ccccc1)c1sc2ccccc2c1O
  -9	94	u	x	55	102	-2.9
> CCS(=O)(=O)Nc1cccc(C2=NN(S(=O)(=O)CC)C(c3ccccc3)C2)c1 (configuration not stated)
  -2	98	i	1.1	-67	107	x
> CCn1c(SCC(=O)Nc2nonc2C)nnc1-c1ccoc1C
  -10	107	i	0.92	3	110	-2.7
> CC1=NC(Nc2nc(C)c3ccccc3n2)=NC(C)(C)C1
  -3	102	i	0.8	3	64	0.8
> Cc1ccc(NC(=S)NCCc2c[nH]c3ccccc23)cc1
  3	96	i	0.95	-45	117	-0.9
> O=S(=O)(NC(=NCCc1ccc(Cl)cc1)c1ccccc1Cl)c1cccs1
  -1	98	i	1	x	x	x
> Nc1ccccc1SCc1c(Cl)cccc1Cl
  x	101	i	1	x	x	x
> CC1(C)SC2c3ccccc3C(=O)N2[C@@H]1C(=O)NCCCN1CCOCC1 (some centres not stated)
  10	99	i	0.87	x	x	-0.7
> O=[N+]([O-])c1ccc(N2CCN(CCO)CC2)cc1Sc1nc2ccccc2[nH]1
  -2	103	x	x	-58	140	-1.6
> CN(C)c1cc[n+](CC(=O)Nc2c(Cl)cc(Cl)cc2Cl)cc1
  2	98	i	0.96	54	125	x
> O=C(COC(=O)CNS(=O)(=O)c1ccc2ccccc2c1)Nc1ccccc1Sc1ccccc1
  0	98	i	1.1	10	82	-1.1
> CC(=O)c1ccc(NC(=O)Nc2ccc3c(c2)N(C)C(=O)CS3)cc1
  2	97	i	0.77	x	x	-1.8
> CCOC(=O)c1c(NC(=O)c2ccccc2N(C)S(=O)(=O)c2ccccc2)sc2c1CCCC2
  2	99	i	0.93	x	x	-0.2
> O=C(CSc1ccc(Br)cc1)Nc1ccccc1Oc1ccccc1
  -4	108	i	0.96	44	84	-0.7
> Cc1ccc(NC(=O)COC(=O)C(NS(=O)(=O)c2ccc(Cl)cc2)C(C)O)c(Br)c1 (configuration not stated)
  2	106	i	0.93	-100	91	-1.8
> COc1ccc(CCNC(=O)Cn2cnc3ccccc3c2=O)cc1OC
  5	92	i	0.96	6	116	-1.0
> Cn1c(=O)c2c(nc(SCC(=O)Nc3ccccc3N3CCCCC3)n2C)n(C)c1=O
  -1	117	i	0.92	x	x	-1.1
> COc1ccc(CCNC(=O)C(=O)NCC2OCCN2S(=O)(=O)c2ccc(Br)cc2)cc1 (configuration not stated)
  0	122	i	1	-56	104	-1.4
> O=S(=O)(c1ccc(Cl)cc1Br)N1CCCCC1
  -2	44	i	0.94	-230	41	0.4
> Cc1ccc(N2C(=O)C3ON(c4ccccc4)C(c4ccncc4)C3C2=O)cc1 (configuration not stated)
  -9	110	i	0.89	31	107	-0.9
> CC1CCN(CC(=O)c2c[nH]c3ccccc23)CC1
  -1	127	i	0.91	-7	116	-0.6
> Cc1ccnc2nc(C(=O)Nc3ccc(S(=O)(=O)N4CCCC4)cc3)nn12
  x	105	i	1	x	x	x
> CC(C)N(CCO)C(=O)CCc1nnc(CCCc2ccccc2)o1
  -3	100	i	0.92	35	60	x
> CC(C)C(NC(=O)C1CCCCC1)C(=O)Nc1ccc2c(c1)OCCO2 (configuration not stated)
  -7	101	i	0.93	-21	82	-1.1
> CC1=C(C(=O)OCc2ccccc2)C(c2cccnc2)n2ncnc2N1 (configuration not stated)
  8	99	i	0.98	38	228	5.0
> O=C(COC(=O)c1ccccc1N1C(=O)C2C3CCC(C3)C2C1=O)c1ccccc1 (configuration not stated)
  -11	108	i	0.87	-70	93	-0.1
> CCCc1cc(=O)oc2cc(C)cc(OCc3nn[nH]n3)c12
  -3	98	i	0.96	6	41	0.6
> COc1ccc(CCN2CC34C=CC(O3)C(C(=O)NCc3ccccc3Cl)C4C2=O)cc1OC (configuration not stated)
  -7	152	i	0.99	-71	40	-0.2
> CC1CCN(C(=O)C(C)Sc2nc(-c3ccccc3)cc(C(F)(F)F)n2)CC1 (configuration not stated)
  -8	99	i	1	-7	150	-0.4
> CCOc1ccc(NC(=O)C(c2ccccn2)N(C(=O)CCl)c2ccc(OC)cc2)cc1 (configuration not stated)
  -4	97	i	1.1	57	96	-0.6
> S=c1[nH]nc(-c2cc(-c3ccccc3)n[nH]2)n1/N=C/c1ccc(Br)s1
  x	100	i	0.85	x	x	x
> Cc1ccc(OCCC(=O)Nc2c(C)n(C)n(-c3ccccc3)c2=O)cc1
  4	100	i	0.97	-162	92	-4.2
> O=c1c2ccccc2ncn1Cc1ccco1
  -1	104	i	1.2	36	156	-1.2
> O=C(CN1CCCC1)N1c2ccccc2Sc2ccccc21
  -7	99	i	1.1	x	x	-2.2
> CCOc1ccc(N=C(C)c2ccccc2O)cc1
  4	102	i	1	36	54	-0.6
> CSc1nc(-c2ccccc2)nn1C(=O)c1ccc(C)cc1
  -4	103	i	0.97	-10	149	-0.5
> O=C1C2CCCN2C(c2cccs2)N1c1ccc(F)cc1 (configuration not stated)
  -6	99	i	1.2	x	x	x
> CCOC(=O)CCC(=O)NCc1ccc2[nH]c(C)cc2c1
  -9	99	i	0.99	25	58	-2.4
> O=S(=O)(Nc1nnc(-c2ccccc2)s1)c1ccc(Cl)cc1
  2	104	i	1.2	x	x	-1.7
> CCOc1ccc(-n2c(Cc3cc(=O)[nH]c(=O)[nH]3)nnc2SC(C)C)cc1
  -6	101	i	0.78	x	x	-1.5
> COc1ccc(Cn2c(CCC(=O)Nc3ccccc3)nc3cccnc32)cc1
  -5	100	i	0.53	7	128	-1.1
> COc1ccc(CCN(Cc2cc3ccc(C)cc3[nH]c2=O)C(C)=O)cc1OC
  x	102	i	0.96	x	x	x

4 entries from above, sorted by count of non-hydrogen atoms, smallest number first.
Every second line gives: PKD1 kinase inh	RGS16-Gao	HSV replic up	HSV replic up primary fold	INS promoter inh	INS promoter inh cell count	GALR2 ag
> O=S(=O)(c1ccc(Cl)cc1Br)N1CCCCC1
  -2	44	i	0.94	-230	41	0.4
> CC1CCN(CC(=O)c2c[nH]c3ccccc23)CC1
  -1	127	i	0.91	-7	116	-0.6
> CCOc1ccc(-n2c(Cc3cc(=O)[nH]c(=O)[nH]3)nnc2SC(C)C)cc1
  -6	101	i	0.78	x	x	-1.5
> COc1ccc(CCN(Cc2cc3ccc(C)cc3[nH]c2=O)C(C)=O)cc1OC
  x	102	i	0.96	x	x	x

Next section.
Every second line gives: PKD1 kinase inh	RGS16-Gao	HSV replic up	HSV replic up primary fold	INS promoter inh	INS promoter inh cell count	GALR2 ag
> CN(CCCN1CCCCC1)C(=O)CCc1nnc(C2CCCCC2)o1
  -3	99	i	0.9	x	x	x
> COc1ccc(C(C)NC(=O)Cc2ccc(Br)cc2)cc1 (configuration not stated)
  -9	105	i	1	-4	102	-0.8
> CC(=O)Nc1ccc(NC(=S)Nc2ccccc2)cc1
  8	x	i	0.97	-23	133	-2.4
> O=C1/C(=C\c2cccnc2)Sc2ccccc21
  1	140	i	1.1	7	78	1.1
> CC(C)c1ccc(NC(=O)CCNS(=O)(=O)c2cccc3nonc23)cc1
  1	102	i	0.9	-26	122	-0.1
> Cc1ccc(OCC(=O)NC(=S)Nc2ccc(Br)cn2)cc1
  x	91	i	0.96	x	x	x
> Cc1nnc(SCC(=O)NCc2ccc3c(c2)OCO3)s1
  -5	107	i	0.91	19	106	-1.6
> Cc1c(Cc2ccccc2)c(=O)oc2c(C)c(OCc3nn[nH]n3)ccc12
  -10	91	i	0.93	x	x	0.6
> O=C(CSc1n[nH]c(-c2ccccc2Br)n1)NC(=O)NCc1ccco1
  -3	98	i	1	31	113	-1.5
> CC(CN(C)Cc1ccccc1)OC(=O)C1COc2ccccc2O1 (configuration not stated)
  -11	41	i	1.1	x	x	-2.1
> COc1cc(C(=O)Nc2cnc(NC(=O)C(C)C)cc2C)cc(OC)c1OC
  -8	111	i	0.95	0	134	-0.2
> COc1ccc(CCC(=O)Nc2nc3ccccc3[nH]2)cc1
  -5	98	i	0.92	-8	179	-2.7
> CCCCOc1ccc(C2C(=O)N(C3CCCCC3)CC(=O)N2CC2CCCO2)cc1 (configuration not stated)
  2	102	i	0.86	-20	109	0.5
> Cc1noc2ncnc(N3CCCCC3)c12
  -4	106	i	0.93	x	x	x
> Cc1nc2ccc(NC3=NCCCCC3)cc2s1
  3	103	i	0.99	x	x	-3.9
> O=C(CCn1c(=O)oc2ccccc21)Nc1ccc2c(c1)OCCO2
  x	100	i	0.89	x	x	x
> O=C(c1cccs1)n1nc(-c2cccnc2)nc1NCc1ccco1
  3	100	i	0.94	x	x	x
> CC1(C)Oc2ccc(C(=O)N3CCc4ccccc43)cc2N(CC(=O)N2CCCC2)C1=O
  -16	92	i	0.98	-93	88	-2.3
> CCN(CC)S(=O)(=O)c1cccc(-c2nnc(SC(C)C#N)n2Cc2ccccc2)c1 (configuration not stated)
  -7	100	i	1.1	-10	101	-0.4
> CN(CC(=O)O)S(=O)(=O)c1ccc(F)cc1
  -3	98	i	0.91	-125	46	-2.1
> Cc1ccc(C2C(=O)N(C3CCC(C)CC3)CC(=O)N2C2CC2)cc1 (configuration not stated)
  1	71	i	1	x	x	-0.5
> Cc1c(NC(=S)NC(NC(=O)CC(C)C)C(Cl)(Cl)Cl)c(=O)n(-c2ccccc2)n1C (configuration not stated)
  -3	104	i	0.99	x	x	-0.1
> O=C(CSc1nnnn1-c1ccc2c(c1)OCCO2)N1CCN(C(=O)c2ccco2)CC1
  -1	99	i	1.1	x	x	x
> O=C(/C=C/c1ccc([N+](=O)[O-])cc1)NCCc1ccccc1
  -2	101	i	0.98	x	x	x
> Cn1c2[n+](c3ccc(Cl)cc3c1=O)Cc1ccccc1-2
  x	101	i	1	x	x	x
> CC(C)CN(C(=O)CN1CCN(c2cccc(Cl)c2)CC1)c1c(N)n(CC(C)C)c(=O)[nH]c1=O
  -2	101	i	1	x	x	x

Complete entries, looked up by structure. Screens in order: PKD1 kinase inh | RGS16-Gao | HSV replic up | HSV replic up primary fold | INS promoter inh | INS promoter inh cell count | GALR2 ag
Listed for `CC(CN(C)Cc1ccccc1)OC(=O)C1COc2ccccc2O1` (configuration not stated) → -11 | 41 | i | 1.1 | x | x | -2.1
Listed for `CC1(C)Oc2ccc(C(=O)N3CCc4ccccc43)cc2N(CC(=O)N2CCCC2)C1=O` → -16 | 92 | i | 0.98 | -93 | 88 | -2.3
